# hNpr1 antagonist: Natriuretic polypeptide receptor (hNpr1) antagonism - Primary qHTS; HEK293 hNpr1 GloSensor cGMP, ANP-stimulated luminescence; Potency, µM (series often up to 46.3 µM), for the others: top-dose activity change, negative = inhibition, actives largely listed as inhibitors; AID 1347048, 2019; 1.6% of 76,000 active; active = well fitted inhibition curve with a large enough effect; inconclusive = small, poorly fitted or top-dose-only effect; inactive = no such curve, though single readings can be large or run the other way;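 further: nearly all actives have a fitted effect of over 60% in size; nearly all hits also lower the signal before the agonist is added; a reference antagonist and vehicle were the controls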
# Target sequence (P16066 whole entry, looked up): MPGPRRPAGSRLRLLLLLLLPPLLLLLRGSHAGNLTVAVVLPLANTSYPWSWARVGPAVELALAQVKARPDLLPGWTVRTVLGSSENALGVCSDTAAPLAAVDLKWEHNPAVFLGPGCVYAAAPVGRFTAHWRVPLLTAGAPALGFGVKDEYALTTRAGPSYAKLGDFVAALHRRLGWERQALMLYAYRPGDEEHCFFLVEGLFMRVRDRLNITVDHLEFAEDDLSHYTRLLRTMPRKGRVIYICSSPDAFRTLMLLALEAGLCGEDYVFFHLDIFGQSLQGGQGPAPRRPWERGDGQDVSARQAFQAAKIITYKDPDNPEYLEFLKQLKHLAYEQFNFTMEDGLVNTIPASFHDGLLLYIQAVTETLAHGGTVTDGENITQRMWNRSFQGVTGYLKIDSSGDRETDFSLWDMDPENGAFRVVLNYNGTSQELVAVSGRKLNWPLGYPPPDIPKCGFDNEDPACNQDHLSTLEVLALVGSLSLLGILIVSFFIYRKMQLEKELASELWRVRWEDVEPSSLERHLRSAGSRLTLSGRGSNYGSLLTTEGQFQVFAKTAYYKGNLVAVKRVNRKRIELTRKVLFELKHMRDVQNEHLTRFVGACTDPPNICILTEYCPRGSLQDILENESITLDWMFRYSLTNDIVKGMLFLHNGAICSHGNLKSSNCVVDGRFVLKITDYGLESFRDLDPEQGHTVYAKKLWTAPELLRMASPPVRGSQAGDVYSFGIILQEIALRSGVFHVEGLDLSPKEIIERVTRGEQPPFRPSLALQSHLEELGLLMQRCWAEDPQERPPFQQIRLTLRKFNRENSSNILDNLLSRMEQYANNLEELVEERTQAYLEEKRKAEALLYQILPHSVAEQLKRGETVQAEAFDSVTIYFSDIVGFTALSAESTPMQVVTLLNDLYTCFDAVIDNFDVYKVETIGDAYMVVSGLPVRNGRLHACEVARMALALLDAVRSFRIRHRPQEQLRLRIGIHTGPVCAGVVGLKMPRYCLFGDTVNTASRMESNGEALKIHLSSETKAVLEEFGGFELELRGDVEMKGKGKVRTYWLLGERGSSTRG
#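 Compound pre-incubated 30 min at room temperature on GloSensor-loaded HEK293 cells stably carrying hNpr1 and the pGS-40F cGMP biosensor. Stimulation uses hNppA at 0.1 nM final; luminescence is taken at baseline and 20 min post-agonist.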
# Starred values were filed as active, the others as inactive; ? = inconclusive; [ ] = another dose, or the depositor's remark. On the % scale 0 is the no-effect control and ±100 the full control effect; potency means the concentration at half of the fitted maximal effect. The list is partial; count on the stated rates, not on these rows.
SMILES,hNpr1 antagonist
O=C1CC2(CCN([S+](=O)([O-])c3ccccc3)CC2)Oc2ccccc2N1,11%
COc1ccc(-c2noc([C@@H]3CCCN3C(=O)Cc3ccccc3OC)n2)cc1,5%
COc1cccc(C(=O)N[C@@H]2CN(c3ncccn3)C[C@H]2CN(C)C)c1C,4%
Cc1cccc(C(=O)N2CCC(Cc3nncn3C)C2)c1 (stereo unspecified),-12%
NC(=O)c1nnn([C@H]2C[C@H]3C(=O)N4CC[C@H](SCc5ccc(F)cc5)C[C@H]4C(=O)N3C2)c1C(N)=O,0%
Cc1cccc(C)c1NC(=O)Cn1ccn2nc(-c3ccccc3)c(CO)c2c1=O,0%
Cc1cn2nnc(C(=O)NCCC3=CCCCC3)c2c(=O)[nH]1,6%
COc1ncccc1CN1CC[C@@H]2OCC(=O)N(c3ccccc3)[C@H]2CC1,-13%[70.6 µM]
COCCN1C(=O)[C@H]2CN(Cc3cccc(F)c3)C[C@H]2C1=O,-3%
CCN1c2cc(C(=O)NCCOc3ccccc3OC)ccc2C(=O)N2CCCCCC21 (stereo unspecified),-1%
Cc1cccc(CNC(=O)C2(c3ccc(NS(C)(=O)=O)cc3)CCC2)c1,-1%
COc1ccc(CNC(=O)c2cc3cn(C4CC4)cc3s2)cc1OC,-13%
COC(=O)CNC(=O)N1c2ccccc2CC1c1nc(C2CC2)no1 (stereo unspecified),-2%
CC(C)(Oc1nn(Cc2cccc(Cl)c2)c2ccccc12)C(=O)NCC[S+](C)(=O)[O-],?
Fc1ccc(NC(=S)N[C@H]2CO[C@H]3[C@@H]2OC[C@@H]3n2nnnc2-c2ccccc2)cc1,-5%[70.6 µM]
CN(C)C[C@@H]1CN(Cc2cccnc2)C[C@H]1NC(=O)COc1ccccc1,-3%
COc1ccc(CCNC(=O)CN2C(=O)C(c3ccccc3)=NC23CCCCC3)cc1OC,-16%
COc1ccc(CNC(=O)C[C@@H]2C[C@@H](C(C)C)[C@H](CNC(=O)c3ccc(NC(C)=O)cc3)C=C2C)cc1,-1%
O=c1c2nc(-c3ccc(O)c(F)c3)ccc2ncn1-c1ccc(F)cc1F,-1%[70.6 µM]
O=C(c1cccc(-n2cnnc2)c1)N1CCOC(c2ccc(F)cc2)C1 (stereo unspecified),3%
Cc1cnn(CCC(=O)N[C@@H]2CN(C)C[C@H]2CN(C)C)c1,5%
O=C1CCCN1CCCN1C(=O)[C@@H]2C[C@@H](O)CN2C2(CN(Cc3ccoc3)C2)C1=O,2%[70.6 µM]
COCC(=O)N[C@@H]1CN(C(=O)N(C)C)CC[C@@H]1c1nc(C)no1,4%
O=C(c1coc(CN2CCN(C/C=C/c3ccccc3)CC2)n1)N1CCC[C@H]1CO,1%
Fc1ccc2oc([C@H]3CCN(C4CCOCC4)C3)nc2c1,-6%[70.6 µM]
# Going on with the list.
SMILES,hNpr1 antagonist
Cc1cc(CN2C[C@@H](CO)[C@H](C(=O)N(C)C)C2)n(C)n1,-2%
COCCN1CC2(CCCN(Cc3ccc4ccn(C)c4c3)C2)CCC1=O (stereo unspecified),0%
COc1cc2c(cc1OC)C(CNC(=O)c1cccs1)N(C(=O)Nc1cccc(F)c1)CC2 (stereo unspecified),-3%
COc1ccc(N2CCN(C3CCCN(C/C=C/c4ccccc4OC)C3)CC2)cc1 (stereo unspecified),10%
Cc1ccc(-n2cccn2)c(CN2CCCC(CCC(=O)Nc3ccccc3F)C2)c1 (stereo unspecified),-12%
CCn1ncc(C(=O)N[C@@H]2CN(Cc3ccccc3)C[C@H]2CN(C)C)c1C,0%
COC(=O)c1cnc2c(c1)n(CCCn1cnnn1)c(=O)n2C1CCCCC1,7%
O=C(NC1CCCN(c2cc(-c3ccc(F)cc3)[nH]n2)C1)c1cccs1 (stereo unspecified),1%
COC[C@@H]1CN(C(=O)CCc2ccccc2OC)C[C@H]1c1ccncc1,-1%
O=C(C1CCCC1)N1CCC(N2C(=O)C(OCC3CC3)C23CCCCC3)CC1 (stereo unspecified),-5%
CCc1nc(-c2c3n(c(=O)n(CCc4ccc(OC)cc4)c2=O)CCCC3)no1,1%
COc1ccc(C)cc1C(C(=O)O)N1CCN(Cc2csc(C)n2)CC1 (stereo unspecified),-2%
Cn1ncc(N2CCC(CNC(=O)c3cn(CCN)nn3)C2)cc1=O (stereo unspecified),6%
CCOc1ccccc1NC(=O)C1CN(S(=O)(=O)C2CC2)CC12CCCCC2 (stereo unspecified),-12%
CNC(=O)[C@@H](c1ccc(OC)cc1)N1CCC[C@H]1C(=O)N1CCC(C)CC1,0%[70.6 µM]
Cc1nn2c(c1-c1ccccc1-c1ccccc1)N(C(=O)C1CCOCC1)CCC2,3%[70.6 µM]
Cc1nn(-c2ccc(C(C)C)cc2)c(C)c1[C@@H]1C=C[C@@H](NC(=O)Nc2ccc(Cl)cc2)C1,-19%
COc1ccc(-c2cc3nc4c(c(=O)n3[nH]2)CN(C(=O)c2n[nH]c3c2CCCCCC3)CC4)cc1,-7%
Cc1ccc(CN2C[C@@H](CO)[C@H](NC(=O)c3ccccc3)C2)nc1,-1%
COCCNC(=O)[C@@H]1C[C@H](Oc2cccnc2)CN1C(=O)c1cnccn1,4%
CCc1nc2c(c(-c3ccc(O)cc3)n1)CN(CCC(C)C)CC2,0%[70.6 µM]
Cc1ccc2cc(CCC(=O)NCc3cccs3)c(=O)[nH]c2c1,-2%
COc1ccc(-c2ccccc2NC(=O)C2CCCN(Cc3c(O)cccc3OC)C2)cc1 (stereo unspecified),?
O=C([C@@H]1C[C@H](Oc2ccccc2)CN1C(=O)CCCc1ccccc1)N1CCCC1,-19%
CCCN[C@H]1C[C@@H](Cc2cc(COc3ccccc3)on2)C1(C)C,-5%[70.6 µM]
# (more compounds)
SMILES,hNpr1 antagonist
O=C(NCC1(N2CCOCC2)CCCC1)c1coc(COc2cccc(F)c2)n1,3%
CCOCC(=O)N1CCN(Cc2ccc(=O)n(CC3CC3)c2)CC1,-1%
CC(C)c1ccc(NC2=N[C@H]3[C@@H](O)[C@H](O)C[C@H](C(=O)NCCN4CCOCC4)[C@H]3S2)cc1,3%
Cn1ccnc1CNc1nccc(-c2cnn(-c3ccccc3F)c2)n1,0%
O=C(NCc1ccncc1)c1cn(C2CN(C(=O)Nc3ccccc3)C2)nn1,9%
Cc1ncc(C)c(N2C[C@H](NC(=O)CCC(F)(F)F)[C@@H](C(C)C)C2)n1,0%
Cc1ccoc1C(=O)N1CC(F)(F)C[C@H]1c1nc(C2CC2)no1,5%
COc1cc(OC)c(NC(=O)N2CCC(Oc3ncccc3C(=O)N(C)C)C2)cc1Cl (stereo unspecified),-4%
CC(C)(C)CNC1(Cc2cc(-c3cccc(O)c3)on2)COC1,7%[70.6 µM]
CN1C[C@H](O)C[C@H]1c1nnc2n1CCN(C(=O)CC1CCCCC1)CC2,1%
CCCN(CC1CC1)C(=O)c1coc(COc2ccc3sc(C)nc3c2)n1,?
O=C(CCc1cc2n(n1)CCCNC2)NC1CCCN(c2ncccn2)C1 (stereo unspecified),0%
CN(CC(N)=O)C(=O)[C@@H]1[C@@H](NC(=O)Nc2ccc(F)cc2F)CCN1C(=O)c1cnccn1,3%
Cc1nc(C(F)(F)F)nc(N2CCOC(c3ccc(F)cc3)C2)c1C (stereo unspecified),-24%
Cc1ccc(CN(C)C(C)c2cccs2)cc1 (stereo unspecified),12%[70.6 µM]
COC[C@@H]1CN(C(=O)CCn2ccnc2)C[C@H]1c1ccncc1,-6%
COc1ccccc1CN1CC[C@H]2COC(=O)N2c2cc(F)ccc2C1,1%[70.6 µM]
CCCNC(=O)N1CCC(c2noc(-c3ccccc3)n2)C1 (stereo unspecified),1%
O=C(Nc1cccc(Cl)c1F)N1CCC(OC2CCN(Cc3ccccc3)CC2)CC1,-1%
Cc1nc(C)c(C(=O)NCc2cccnc2N(C)C2CCCCC2)s1,-18%
O=C(c1cccs1)N1CCC2(CC1)NCCc1c2[nH]c2ccccc12,-16%
COc1ccc(C(=O)NC[C@@H]2C=C(C)[C@H](Cc3nnc(-c4cncn4C)o3)C[C@H]2C(C)C)cc1,-7%
CCc1ccccc1OCC(=O)c1ccc2c(c1)N(CC(=O)NCCCOC)C(=O)CO2,5%
CCOc1ccccc1NC(=O)Cn1c(-c2ccc(F)cc2)nc(C)cc1=O,2%
O=C(NC1CCc2nn(CC3CC3)c(=O)n2CC1)c1ccc2nc[nH]c2c1 (stereo unspecified),-1%

# Rewritten with bars between the fields: six of the compounds above.
Molecule | hNpr1 antagonist
Cc1cn2nnc(C(=O)NCCC3=CCCCC3)c2c(=O)[nH]1 | 6%
Fc1ccc2oc([C@H]3CCN(C4CCOCC4)C3)nc2c1 | -6%[70.6 µM]
CCOc1ccccc1NC(=O)C1CN(S(=O)(=O)C2CC2)CC12CCCCC2 (stereo unspecified) | -12%
Cc1nc(C)c(C(=O)NCc2cccnc2N(C)C2CCCCC2)s1 | -18%
COCCNC(=O)[C@@H]1C[C@H](Oc2cccnc2)CN1C(=O)c1cnccn1 | 4%
COc1ncccc1CN1CC[C@@H]2OCC(=O)N(c3ccccc3)[C@H]2CC1 | -13%[70.6 µM]

# Next section.
SMILES,hNpr1 antagonist
O=C(NCc1ccnc2[nH]ccc12)c1cccnc1,-4%[70.6 µM]
CCc1ccc(CNC(=O)C2CCN(c3cc(C(F)(F)F)nc(C)n3)CC2)cc1,-9%
CC(=O)Nc1ccc(OCC(=O)NC(C)c2ccccc2)nc1 (stereo unspecified),1%
COCCn1c(C)cnc1CCNS(=O)(=O)Cc1ccccc1F,3%
COc1ccc(CN2Cc3[nH]nc(-c4cccc(OC)c4OC)c3CC2=O)cc1,-6%[70.6 µM]
COc1cc(C(=O)N2CCC(O)(c3ccc(C)cn3)CC2)cc(OC)c1OC,4%
COc1ccc(S(=O)(=O)NC[C@H]2COCc3nc4c(C)cccc4n32)cc1,25µM*
O=C(NC1CCCC1)C1CCN(C(=O)c2ncn3c2COC(c2ccc(Cl)cc2)C3)CC1 (stereo unspecified),-7%
Cc1cc(C)n(CCC(=O)N2CCC(CCOc3ccc(F)cc3)C2)n1 (stereo unspecified),?
O=c1cc(-c2ccncc2)oc2c(-c3ccccc3O)nccc12,4%[70.6 µM]
CS(=O)(=O)N1CCOCCNC(=O)[C@@H]2CCC[C@@H]21,-2%
Cc1ccc(C(=O)N2CCN(c3nnc4c(Cl)cccn34)CC2)cc1,2%
N#Cc1cnc(N2CCN(Cc3cncnc3)CC2)nc1N,4%
CCCS(=O)(=O)N1CCC2(CC1)CC(N1CCN(C(C)=O)CC1)CCO2 (stereo unspecified),2%
COc1cc(=O)n2c(c1C(=O)Nc1cccc(Br)c1)CCCC2,2%
COc1cc(=O)n2c(c1C(=O)Nc1cccc(Cl)c1)CCCC2,-1%
CC(C)NC(=O)Cc1ccc(N(Cc2ccccc2)C(=O)c2ccco2)cc1,1%
O=C(C[C@H]1NC(=O)c2ccccc2NC1=O)Nc1nnc(C2CC2)s1,3%
O=C(NC1CCCCC1)NC1CCN(C(=O)N2CC3CC(C2)[C@H]2CCCC(=O)N2C3)CC1 (stereo partly specified),-1%
CCC(C)(C)C(=O)N1CCC2(CC1)CC(N(Cc1ccc(F)cc1)C1CC1)CCO2 (stereo unspecified),-8%
Cc1ccccc1CNC(=O)c1ccc(CN2C(=O)NC3(CCOCC3)C2=O)cc1,-3%
O=C(CN1C(=O)NC2(CCS(=O)(=O)CC2)C1=O)Nc1ccc2c(c1)OCCO2,-5%
CCCC(NC(=O)c1ccc(C#N)cc1)c1ccccc1 (stereo unspecified),-4%
Cc1ccc(-c2noc([C@@H]3CCCN3C(=O)Cc3ccccc3)n2)cc1,-13%
CC(C)Cc1cc(C(=O)NCc2nc(Cc3cccs3)no2)on1,4%

# Shown with each value named: part of the list above.
> O=C(NC1CCCC1)C1CCN(C(=O)c2ncn3c2COC(c2ccc(Cl)cc2)C3)CC1 (stereo unspecified)
  hNpr1 antagonist: -7%
> CCCC(NC(=O)c1ccc(C#N)cc1)c1ccccc1 (stereo unspecified)
  hNpr1 antagonist: -4%
> CCc1ccc(CNC(=O)C2CCN(c3cc(C(F)(F)F)nc(C)n3)CC2)cc1
  hNpr1 antagonist: -9%
> CC(C)Cc1cc(C(=O)NCc2nc(Cc3cccs3)no2)on1
  hNpr1 antagonist: 4%

# Further entries follow.
SMILES,hNpr1 antagonist
Cc1nc(CCNC(=O)C(C)(C)C)no1,1%
Cc1cccc(-n2nc(-c3c(C)nc4scc(CC(=O)N5CCOCC5)n4c3=O)cc2C)c1,-1%
CC(C)Cc1nnc(NC(=O)C[C@H]2NC(=O)c3ccccc3NC2=O)s1,4%
NS(=O)(=O)c1ccc(C(=O)N[C@H](c2cccs2)C2CC(O)C2)cc1 (stereo partly specified),-2%
Cc1ncc(CN2CCC(C(=O)O)(n3ccc(-c4ccco4)n3)CC2)[nH]1,5%
Cc1ccc(C2=NC3(CCN(C(=O)Cc4ccccc4Cl)CC3)ON2)cc1,-16%
Cc1ccccc1-c1cn[nH]c1C1CCN(C(=O)c2cnn3ccccc23)CC1,-14%
CN(CC1CCOCC1)C(=O)c1ccccc1,-1%
CCc1ccc(CN2CCCC(CNC(=O)c3cccc(OC)c3OC)C2)o1 (stereo unspecified),6%
CCn1ncc(N2CCCC(CC(=O)N3CCCCC3)C2)cc1=O (stereo unspecified),13%
c1ccc(CNC[C@H]2COCc3nc4ccccc4n32)cc1,22µM*
CCc1nnc2ccc(N3CCN(C(C)C)CC3)nn12,4%
Cc1cccc(CN2CCN(Cc3nc(-c4cccs4)oc3C)CC2CCO)n1 (stereo unspecified),-14%

# Compounds listed so far that have a cyano group (two):
SMILES,hNpr1 antagonist
N#Cc1cnc(N2CCN(Cc3cncnc3)CC2)nc1N,4%
CCCC(NC(=O)c1ccc(C#N)cc1)c1ccccc1 (stereo unspecified),-4%
